# BJeLR viability: BJeLR cell viability loss; 0.17% of 300,000 active; AID 1554; inhibition, % (no concentration beside the values); BJeLR (HRASV12) viability, CellTiter-Glo ATP luminescence, 48 h; reference of the scale not given here;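 active = replicate mean above 50%; inconclusive = above 50% but judged a plate artefact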;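 note: 50 nL library stock added to about 25 µL; numbers are from one replicate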
# Mtb hypoxia inh: Mtb hypoxia fluorescent reporter inhibition. M. tuberculosis hypoxia-regulated fluorescent reporter, fluorescence. fluorescence inhibition, % (no concentration beside the values). AID 1159583. 0.1% of 300,000 active;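 active = 35 to 45% if threefold the growth effect, above 45% if 1.5-fold the growth effect; inactive = the rest, general growth blockers included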;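 note: wells of about 50 µL received 100 nL stock; 0% = vehicle wells and 100% = reference inhibitor wells; whole bacteria with a GFP reporter of the hypoxia response; strong numbers were not always called active; many hits fall short of the cut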
# ugtP null kill: growth inhibition of S. aureus ugtP deletion strain; S. aureus RN4220 ugtP deletion, OD600 growth, 16 h; some inactives read as strong as hits; growth inhibition, % (test concentration not listed); 0.54% of 330,000 active; AID 1259309;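 active = z-score under -3 and OD600 up to 0.15 on both plates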;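 note: plate controls were untreated wells for no effect and antibiotic for full effect; wells of about 80 µL received 100 nL stock; the first replicate is given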
# PrP 5UTR inh: inhibition of PrP 5' UTR reporter expression; cell-based PrP 5' UTR mRNA reporter, plate reader; inhibition, % (test concentration not listed); 0.35% of 340,000 active;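 active = every replicate at 50% or more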;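 note: 0 = median of the neutral control wells; tested in H4 reporter cells; numbers are from one replicate; inactives centre near -14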
# Sa RN4220 lethal: kills Staphylococcus aureus RN4220; 0.33% of 330,000 active; inhibition, % (test concentration not listed); S. aureus RN4220 growth, OD600, 16 h;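 active = z-score of -3 or lower and OD600 up to 0.18 on both plates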;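 note: plate controls were untreated cells for no effect and reference antibiotic for full effect; stock transfer was 100 nL into about 80 µL; one replicate is shown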
# Autofluor counter: compound fluorescence in toxin protease inhibitor counterscreen; compound autofluorescence counterscreen, microsphere flow cytometry; hits give high values; fluorescence intensity (concentration not given with the values); 3.1% of 360,000 active; AID 624483;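 active = at least 3 SD above the mean of all compounds, about 16000 in these data; inconclusive = too few beads counted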;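 note: 100 nL of 1 mM stock went into each well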
# Mtb hypoxia inh growth: recorded beside Mtb hypoxia inh, whose call it bears; growth inhibition, %; measured here: M. tuberculosis growth (absorbance);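 0% = vehicle and 100% = reference antibiotic; read after six days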
# An asterisk follows results filed as active; ? = inconclusive; · = no result given.
SMILES,BJeLR viability,Mtb hypoxia inh,Mtb hypoxia inh growth,ugtP null kill,PrP 5UTR inh,Sa RN4220 lethal,Autofluor counter
CC(C)(C)NC(=O)C1Cc2ccccc2CN1 (stereo not given),1,18,1,9,-23,3.1,4343
O=C(CSc1nccc(=O)[nH]1)Nc1cccc(S(=O)(=O)N2CCOCC2)c1,4,11,14,6,-20,2.2,4341
CCOC(=O)N1CCN(C(=O)c2cc(COc3cccc(C(F)(F)F)c3)on2)CC1,-4,2,1,-2,-76,6.9,?
COc1ccc(CNC(=O)C(C)N(Cc2ccco2)C(=O)c2snc(C(N)=O)c2N)cc1 (stereo not given),-3,-1,0,-8,-40,-0.9,9596
O=C(CNC(=O)c1ccc(Br)cc1)OCc1cc([N+](=O)[O-])cc2c1OCOC2,-8,6,13,2,-11,7.2,4461
CN(c1ccc(C(=O)NCCSCc2ccc(Cl)cc2)cc1)S(=O)(=O)c1ccccc1,-7,1,7,-8,-18,-8.6,2530
COc1ccc(/C=N/NC(=O)CCn2nc(C)cc2C)cc1,-8,·,·,·,-13,·,5935
O=[N+]([O-])c1cc(S(=O)(=O)Nc2ccccc2)ccc1-n1nnc2ccccc21,8,·,·,-1,-27,-9.3,2669
CN(C)S(=O)(=O)c1ccc(C(=O)NCCS(=O)(=O)N2CCN(c3ccc(F)cc3)CC2)cc1,-11,0,6,-4,-3,-1.3,4847
COc1ccc(/C=N/n2c(-c3ccc(C)cc3)n[nH]c2=S)cc1OC,-9,·,·,·,-6,·,3321
Fc1ccc(C(CCCn2nnc(-c3cccnc3)n2)c2ccc(F)cc2)cc1,5,7,5,39,-8,-2.1,3264
Cc1c(C(=O)NCc2ccccn2)oc2ccc(S(=O)(=O)N3CCOCC3)cc12,-6,7,8,8,-19,1.2,10627
CCCOc1ccc(-c2c(C(=O)N/N=C/C3CC=CCC3)nnn2-c2nonc2N)cc1 (stereo not given),5,·,·,·,-23,·,4990
Cc1cc(Nc2ccc(N(C)C)cc2)n2ncnc2n1,-4,-23,3,6,-44,2.2,3252
COc1ccc2c(CCNC(=O)CN3C(=O)c4ccccc4C3=O)c[nH]c2c1,-10,15,-1,1,-5,1.2,2422
CCOc1ccc(-c2c(C(=O)NN=Cc3sccc3C)nnn2-c2nonc2N)cc1,·,-6,-1,10,·,16,·
CCOC(=O)c1c(N)sc(C(=O)OCCOC)c1C,-3,-9,13,-3,-14,0.6,2423
CC(=O)c1cccc(NC(=O)N2C3CCC2CC(O)(c2cccnc2)C3)c1 (stereo not given),0,9,2,-2,-17,-1.7,3213
CC(C)N(C)Cc1nnnn1CC(=O)N(C)Cc1cccc(Cl)c1,21,0,12,4,-7,3.0,3971
CC1(C)Cc2c(C#N)c(SCc3ccccc3)nc(N3CCOCC3)c2CO1,-4,5,10,9,2,-8.4,2451
Cc1[nH]c2ccccc2c1C1C(c2ccccc2)=NN=C(C(C)C)N1O (stereo not given),3,-1,4,-6,-4,-0.9,8119
O=C(O)c1cccc(S(=O)(=O)N2CCc3ccccc3C2)c1,-5,6,8,18,0,-1.1,3857
COc1ccccc1CN1CC(C(=O)NCCN2CCNC2=O)CCC1=O (stereo not given),-1,4,-4,3,-5,4.5,4866
S=c1[nH]nc(C2CCCCC2)n1N=Cc1cccs1,·,5,6,-3,·,2.8,·
COc1cc(NC(=O)CN2C(=O)NC(c3ccccc3)(c3ccccc3)C2=O)c(C)cc1[N+](=O)[O-],2,7,-1,6,-14,1.0,2014

# The final 3 records of the part before are carried over, then new ones follow.
SMILES,BJeLR viability,Mtb hypoxia inh,Mtb hypoxia inh growth,ugtP null kill,PrP 5UTR inh,Sa RN4220 lethal,Autofluor counter
COc1ccccc1CN1CC(C(=O)NCCN2CCNC2=O)CCC1=O (stereo not given),-1,4,-4,3,-5,4.5,4866
S=c1[nH]nc(C2CCCCC2)n1N=Cc1cccs1,·,5,6,-3,·,2.8,·
COc1cc(NC(=O)CN2C(=O)NC(c3ccccc3)(c3ccccc3)C2=O)c(C)cc1[N+](=O)[O-],2,7,-1,6,-14,1.0,2014
CCOC(=O)c1c(NC(=O)C2CCCO2)sc(C(N)=O)c1C (stereo not given),-10,7,16,7,-14,-0.5,7902
CC(=NCCc1ccccc1)C1=C(O)CCC1=O,-8,6,7,18,-14,6.4,7628
Cc1ccc(-c2csc(NC(=O)C3=COCCO3)n2)cc1,-4,11,11,9,-92,2.0,2006
Cc1ccc(N=Nc2ccc(N)cc2C)c(S(N)(=O)=O)c1,-3,10,6,-5,-35,10,3619
CCCSc1cc(N)cc([N+](=O)[O-])c1,-1,11,9,3,-14,11,2025
COc1ccccc1NC(=O)Cn1c(=O)oc2ccccc21,-5,18,-1,1,-11,2.3,4437
CC(=O)Nc1cccc(C(=O)NC2CCCc3c2cnn3-c2cc(C)cc(C)c2)c1 (stereo not given),7,8,7,4,-14,3.3,5434
CC1=CC(C)(C)N2C(=O)C3(NCCc4c3[nH]c3ccccc43)c3cccc1c32 (stereo not given),-6,-6,-4,1,-11,52,3869
CC(C)CCc1c(O)nc(SCC(=O)N2CCCCCC2)[nH]c1=O,-13,·,·,·,-7,·,5956
COc1ccc(NS(=O)(=O)c2ccc(C)c(NC(=O)NC3CCCCC3)c2)cc1,0,-4,9,10,5,-3.8,1917
CC(C)(C)c1cc(NS(=O)(=O)c2ccc3c(c2)OCCO3)on1,-2,1,4,8,-4,2.5,13966
CCC(NC(=O)c1ccccc1NC(=O)c1ccccc1)C(=O)O (stereo not given),-2,-1,1,1,-26,4.6,10385
O=C(O)C1C(C(=O)O)C2(Cl)C(Cl)=C(Cl)C1(Cl)C2(Cl)Cl (stereo not given),·,9,4,2,-19,1.4,5366
O=C(OCc1cc(=O)n2c(n1)sc1ccccc12)c1cccc(O)c1,-1,3,-2,-3,-16,0.2,2221
CCn1ccc(C(=O)NC2=C(C#N)CCC2)n1,7,6,8,-4,9,1.2,4520
NC(=O)c1ccc(NC(=O)COC(=O)CCCOc2ccccc2)cc1,·,9,7,6,-21,0.6,?
CCc1ccc2c(c1)C(c1ccc(N3CCOCC3)cc1)=NNC(c1ccncc1)=N2,5,-1,-1,8,-10,2.4,4664
O=C(CNC(=S)N(Cc1ccccc1)Cc1ccccc1F)NCCc1ccccc1,-7,-8,4,7,-22,1.5,4071
CCOC(=O)c1c(C)[nH]c(-c2csc(C)n2)c1C,7,13,7,6,-48,0.6,4396
Cc1cc(N/N=C/c2ccccc2)nc(N)n1,-8,·,·,·,-17,·,3417
COc1ccc(S(=O)(=O)N2CCOCC2)cc1NC(=O)c1ccccc1-c1ccc(C(F)(F)F)cc1,0,6,0,10,-9,3.9,2312
COc1ccc(NC(=S)NCC2CCN(c3ccc(OC)cc3)C2)cc1 (stereo not given),-4,-5,9,1,-6,-1.1,1760
O=C(Cc1ccccc1)Nc1nnc(-c2ccco2)s1,·,·,·,5,-26,-2.1,2037
Cc1ccc(C)c(N2CCN(C(=O)c3nn(C)c4c3CS(=O)(=O)c3ccccc3-4)CC2)c1,6,11,4,-5,-20,1.3,5767
Nc1nc2ccc(Cc3ccncc3)cc2s1,-3,-7,5,-4,-50,7.0,5588

# More entries follow:
SMILES,BJeLR viability,Mtb hypoxia inh,Mtb hypoxia inh growth,ugtP null kill,PrP 5UTR inh,Sa RN4220 lethal,Autofluor counter
CN(C)/C=N/c1ncn(-c2ncc(C(F)(F)F)cc2Cl)n1,1,·,·,·,-60,·,2418
O=C(CSc1nc2ccccc2c(=O)n1Cc1ccco1)N1CCN(c2ccccc2)CC1,0,-1,-3,0,-4,3.6,3967
CC1(C)CC(O)CC(C)(C)N1CC(O)COCc1ccccc1 (stereo not given),1,0,1,-4,-19,-2.6,5398
CCS(=O)c1ccccc1C(=O)OCC(=O)Nc1cccc(S(=O)(=O)N2CCCCC2)c1 (stereo not given),·,5,2,0,-12,2.6,3377
O=C(CCc1ccccc1)Nc1cccnc1Cl,9,6,5,10,-25,2.9,3754
CC(=NNC(=O)c1ccoc1C)c1cccnc1,·,3,11,2,·,0.8,·
CCCN(Cc1nnc(-c2ccccc2Cl)o1)C(=O)c1cc2ccccc2o1,-16,4,8,1,-26,3.5,5793
CCn1c(=O)c(C(=O)NCCCO)c(O)c2ccccc21,-7,·,·,·,-16,·,3263
Cc1cc(Cl)c(S(=O)(=O)Nc2cccc(O)c2)cc1OCC(N)=O,-10,10,2,3,-26,0.5,4039
O=C(Nc1ccc([N+](=O)[O-])cc1Br)c1cc2ccccc2nc1Cl,-5,13,3,6,-41,7.7,4872
Cc1cc(C(=O)Nc2ccc(N3CCOCC3)c3nonc23)ccc1[N+](=O)[O-],8,7,1,-17,-12,13,5763
COc1ccc(-c2cc(C(=O)NC3CCCC3)c3ccccc3n2)cc1OC,-7,15,3,3,-32,1.1,4266
COc1cc(NC(=O)Cn2nc(C(F)(F)F)c(Br)c2C)cc([N+](=O)[O-])c1,3,12,4,-38,-10,-3.8,1940
CCOC(=O)N1CCC(NC(=O)c2cc(S(=O)(=O)NCCc3ccccc3)ccc2F)CC1,-13,3,1,8,-11,0.7,2016
CCOC(=O)c1cnc2c(OC)cccc2c1N1CCN(c2ccccc2OC)CC1,-7,·,·,·,0,·,4060
COc1cc(CCCN2CCNC[C@@H]2Cc2ccc(O)cc2)cc(OC)c1OC,-5,·,·,·,-27,·,3190
COc1ccccc1C(=O)NCCCNC(=O)c1cnccn1,-7,0,-8,4,0,3.0,4180
CC(=O)N1CCCc2cc(S(=O)(=O)N3CCCC(C(=O)Nc4ccccc4C)C3)ccc21 (stereo not given),9,-1,-3,5,-13,3.3,4201
Cc1ccc(C2C(=O)N(C3CCCC3)CC(=O)N2CC2COc3ccccc3O2)cc1 (stereo not given),-3,0,3,2,-16,-7.4,19758*
CCN(CC)c1nc(C(F)(F)F)nc2c1nnn2Cc1ccccc1,1,3,-1,13,-29,1.5,3431
Cc1cccc(OCc2nnc(SCC(=O)c3ccccc3)o2)c1,-17,-1,-1,-15,-18,3.8,3812
CN1CCN(S(=O)(=O)c2ccc(N)cc2)CC1,1,·,·,9,-12,-1.1,5552
COc1ccc(C)cc1NC(=O)CN1C(=O)COc2ccc(S(=O)(=O)N3CCC(C)CC3)cc21,9,2,3,0,-23,0.4,5095
COc1cccc(-c2nn3c(-c4ccco4)nnc3s2)c1,-2,12,-3,3,-40,6.8,12344
COC(=O)CN(c1ccc2c(c1)OCO2)S(=O)(=O)c1c(C)[nH]c(=O)[nH]c1=O,7,4,-9,1,-23,0.4,5504
COc1ccc(N2C(=O)CC(NCc3ccncc3)C2=O)cc1 (stereo not given),0,1,5,-2,-9,-5.4,3439

# Structural class, the entries above with a thiophene ring, fused or not (four)
SMILES,BJeLR viability,Mtb hypoxia inh,Mtb hypoxia inh growth,ugtP null kill,PrP 5UTR inh,Sa RN4220 lethal,Autofluor counter
CCOc1ccc(-c2c(C(=O)NN=Cc3sccc3C)nnn2-c2nonc2N)cc1,·,-6,-1,10,·,16,·
CCOC(=O)c1c(N)sc(C(=O)OCCOC)c1C,-3,-9,13,-3,-14,0.6,2423
S=c1[nH]nc(C2CCCCC2)n1N=Cc1cccs1,·,5,6,-3,·,2.8,·
CCOC(=O)c1c(NC(=O)C2CCCO2)sc(C(N)=O)c1C (stereo not given),-10,7,16,7,-14,-0.5,7902

# Assay outcomes: PubChem BioAssay, several laboratories

# This is a random part of the collection (roughly 4% active in at least one column).
